# KCNQ2 pot: KCNQ2 (rat) channel potentiation | 310,000 compounds, 0.54% hits | CHO-K1 KCNQ2, FluxOR thallium flux fluorescence; active compounds read high | AID 2239 | B-score at 10 µM;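 active means fluorescence ratio B-score at least 3 SD of library B-scores, with initial fluorescence B-score within 3 SD, cut at about 5.3 in these data; same plate scores as AID 2156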;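 further: B-score of peak minus minimum over baseline fluorescence ratio after K+ and Tl+ stimulus; positive B-score means potentiation of KCNQ2 with more thallium influx and brighter signal; only the inactives scoring about 0 or higher are listed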
# Target sequence (O88943 whole entry, looked up): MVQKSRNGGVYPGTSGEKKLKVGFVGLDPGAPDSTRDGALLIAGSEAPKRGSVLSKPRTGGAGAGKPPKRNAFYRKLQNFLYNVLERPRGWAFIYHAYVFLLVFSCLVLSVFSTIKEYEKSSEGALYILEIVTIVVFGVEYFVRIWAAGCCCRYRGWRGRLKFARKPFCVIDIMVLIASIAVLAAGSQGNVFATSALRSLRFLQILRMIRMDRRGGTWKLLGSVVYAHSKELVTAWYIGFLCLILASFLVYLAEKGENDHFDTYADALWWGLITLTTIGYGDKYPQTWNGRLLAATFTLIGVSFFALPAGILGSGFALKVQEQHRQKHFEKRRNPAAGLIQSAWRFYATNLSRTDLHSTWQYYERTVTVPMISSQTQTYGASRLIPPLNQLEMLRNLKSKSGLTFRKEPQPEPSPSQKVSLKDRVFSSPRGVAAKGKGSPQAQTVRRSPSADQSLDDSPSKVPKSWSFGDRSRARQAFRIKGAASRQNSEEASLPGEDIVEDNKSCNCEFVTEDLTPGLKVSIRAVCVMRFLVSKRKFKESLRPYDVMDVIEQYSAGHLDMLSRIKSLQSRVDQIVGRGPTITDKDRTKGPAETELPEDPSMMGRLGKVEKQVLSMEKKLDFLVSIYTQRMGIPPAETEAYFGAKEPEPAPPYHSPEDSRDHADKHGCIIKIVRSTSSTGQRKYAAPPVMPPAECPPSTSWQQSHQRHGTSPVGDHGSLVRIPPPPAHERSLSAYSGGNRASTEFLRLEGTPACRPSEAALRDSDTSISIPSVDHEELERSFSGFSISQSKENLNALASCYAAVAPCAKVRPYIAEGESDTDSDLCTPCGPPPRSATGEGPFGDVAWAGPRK
# KCNQ2 pot baseline: further read-out of KCNQ2 pot, marked with its call; B-score; compound at 10 µM; measured here: initial fluorescence intensity artifact check;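 brightness before thallium and not channel activity; 0 = typical well and far values either way flag optical interference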
# * = called active by the depositor; / = no result given.
# Start of the data: the first 2 compounds, ahead of the listing:
SMILES,KCNQ2 pot,KCNQ2 pot baseline
CCC12CCCN3CCc4c(n(c5ccccc45)C(O)(C(=O)OC)C1)C32 (stereo unspecified),0.82,1.7
OCC(O)CN1CCN(c2ccccc2)CC1 (stereo unspecified),1.3,-1.1

# Results, previewed entries included:
SMILES,KCNQ2 pot,KCNQ2 pot baseline
CCC12CCCN3CCc4c(n(c5ccccc45)C(O)(C(=O)OC)C1)C32 (stereo unspecified),0.82,1.7
OCC(O)CN1CCN(c2ccccc2)CC1 (stereo unspecified),1.3,-1.1
CC(=O)O[C@@]12CO[C@@H]1C[C@H](O)[C@@]1(C)C(=O)[C@H](O)C3=C(C)[C@@H](OC(=O)[C@H](O)[C@@H](NC(=O)OC(C)(C)C)c4ccccc4)C[C@](O)([C@@H](OC(=O)c4ccccc4)[C@H]21)C3(C)C,0.9,-0.57
CCCN(CCC)C(=O)C(CCC(=O)O)NC(=O)c1ccccc1 (stereo unspecified),1,0.37
CN(C)CCOC(=O)C(c1ccccc1)C1(O)CCCC1 (stereo unspecified),1.1,1.1
Cc1oncc1C(=O)Nc1ccc(C(F)(F)F)cc1,4.3,0.48
CN1CCC(=C2c3ccccc3CC(=O)c3sccc32)CC1,1.8,-0.17
CN1CCN(c2c(F)cc3c(=O)c(C(=O)O)cn4c3c2SCC4)CC1,1.2,/
CCOc1ccc(NC(=S)N2CCC(C(O)(c3ccccc3)c3ccccc3)CC2)cc1,6.5*,-0.13*
O=C(NCCN1CCOCC1)c1ccc(Cl)cc1,0.08,1.4
CCCCOC(=O)c1ccc(N)cc1,0.1,1.3
C[C@@H]1C[C@H]2[C@@H]3C[C@H](F)C4=CC(=O)C(Cl)=C[C@]4(C)[C@@]3(F)[C@@H](O)C[C@]2(C)[C@@]1(O)C(=O)CO,1.1,0
Cc1ccsc1/C=C/C1=NCCCN1C,0.03,0.16
C#C[C@]1(O)CC[C@H]2[C@@H]3CCC4=CC(=O)CC[C@@H]4[C@H]3CC[C@@]21CC,0.52,0.63
CC1(C)Oc2ccc(C#N)cc2[C@@H](N2CCCC2=O)[C@@H]1O,0.19,0.82
CCOC(=O)Nc1ccc2c(c1)N(C(=O)CCN1CCOCC1)c1ccccc1S2,0.31,/
CN=C(N)NC(=O)Nc1c(C)cccc1C,1.4,0.29
CN(CCOc1ccc(NS(C)(=O)=O)cc1)CCc1ccc(NS(C)(=O)=O)cc1,0.11,-1.4
O=C1CCc2cc(OCCCCc3nnnn3C3CCCCC3)ccc2N1,0.09,0.21
COc1ccc(Sc2ccc(NC(=O)c3ccccc3Cl)cc2C#N)cc1,0.4,1.7
OCCOCCN1CCN(C(c2ccccc2)c2ccc(Cl)cc2)CC1 (stereo unspecified),2.4,-1.5
CN(C)C(=N)N=C(N)N,0.55,0.4
CCN(CC)CCOC(=O)C(c1ccccc1)c1ccccc1,1.7,-2.2

# Not a retest: an excerpt of the list.
SMILES,KCNQ2 pot,KCNQ2 pot baseline
CCC12CCCN3CCc4c(n(c5ccccc45)C(O)(C(=O)OC)C1)C32 (stereo unspecified),0.82,1.7
OCC(O)CN1CCN(c2ccccc2)CC1 (stereo unspecified),1.3,-1.1
CC(=O)O[C@@]12CO[C@@H]1C[C@H](O)[C@@]1(C)C(=O)[C@H](O)C3=C(C)[C@@H](OC(=O)[C@H](O)[C@@H](NC(=O)OC(C)(C)C)c4ccccc4)C[C@](O)([C@@H](OC(=O)c4ccccc4)[C@H]21)C3(C)C,0.9,-0.57
CCCN(CCC)C(=O)C(CCC(=O)O)NC(=O)c1ccccc1 (stereo unspecified),1,0.37
CN(C)CCOC(=O)C(c1ccccc1)C1(O)CCCC1 (stereo unspecified),1.1,1.1
Cc1oncc1C(=O)Nc1ccc(C(F)(F)F)cc1,4.3,0.48

# 3 entries drawn at random from those above, as already listed:
SMILES,KCNQ2 pot,KCNQ2 pot baseline
CN1CCN(c2c(F)cc3c(=O)c(C(=O)O)cn4c3c2SCC4)CC1,1.2,/
CCCCOC(=O)c1ccc(N)cc1,0.1,1.3
O=C(NCCN1CCOCC1)c1ccc(Cl)cc1,0.08,1.4

# Assay outcomes (PubChem BioAssay)

# A portion of the library. The share of hits here may be higher or lower than overall.
